Bioassay records (PubChem)
CSC inhib: cancer stem cell inhibition; AID 2717; cancer stem cell-like cells viability, luminescence; actives 1.1% (n = 300,000); inhibition, % at 7.5 µM;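 active = mean at 75% or more and at least half the replicates too; inconclusive = mean and replicates disagree; tested in HMLE shEcad cells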;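 also: 0% = median of negative and 100% = median of positive control wells; the first replicate is given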
Env fusion inh: blocks HIV Env-driven cell-cell fusion; HeLa-JRFL Env/CEM21 cell fusion, luciferase; inhibition, % at 12.3 µM; actives 1.1% (n = 360,000);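 active = mean replicate inhibition score of at least 50 and every replicate individually at or above 50; inconclusive = only one of the two criteria met; inactive = mean below 50 and not all replicates reaching 50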;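 also: 0% = plate neutral controls and 100% = maraviroc near 300 nM; one replicate is shown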
Rce1 inhib: inhibitors of yeast Ras-converting enzyme | yeast membranes, quenched prenylated peptide cleavage fluorescence | calls only | actives 0.27% (n = 290,000) | Q03530;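 active = fall in fluorescence gain of 50% or more versus controls, with final raw signal at or below 3038400; inconclusive = same 50% fall but final raw signal above 3038400; inactive = fall in fluorescence gain under 50%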;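 also: plate controls were neutral control wells for no effect and wells lacking membranes for full effect; tested at 10 µM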
Target sequence (Q03530 whole entry, looked up): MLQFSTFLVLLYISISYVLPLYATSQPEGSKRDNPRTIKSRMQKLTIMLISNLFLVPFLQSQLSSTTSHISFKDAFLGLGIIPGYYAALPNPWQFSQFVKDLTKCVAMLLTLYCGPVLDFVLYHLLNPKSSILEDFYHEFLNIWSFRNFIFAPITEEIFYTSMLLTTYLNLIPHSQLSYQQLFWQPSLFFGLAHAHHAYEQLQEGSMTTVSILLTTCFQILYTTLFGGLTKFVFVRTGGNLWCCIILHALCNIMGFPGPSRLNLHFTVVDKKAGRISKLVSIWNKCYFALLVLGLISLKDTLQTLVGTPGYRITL
Yeast UUG start: yeast start codon fidelity modulation; S. cerevisiae UUG-firefly luciferase reporter, luminescence/redox ratio; activity score, % at 18.7 µM; actives 0.13% (n = 350,000); AID 602363;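 active = replicate mean at a twofold rise or more, about +100% in these data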;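 also: firefly luciferase made from a UUG start codon reports start codon fidelity; reporter light over untreated wells divided by growth signal over untreated wells; some hits fall short of that in this replicate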
eIF4H FP inh: inhibitors of RNA binding by human eIF4H | Q15056 | eIF4H fluorescence polarization binding assay | inhibition, % at 35 µM | actives 0.94% (n = 290,000);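 active = 50% or more with normal probe brightness, or confirmed in later tests; inconclusive = above 50% with abnormal brightness, or retests that disagree; inactive = below 50% or failed in later tests; about a fifth of its hits are not listed in these tables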;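 also: calls also rest on retests at 20 µM and on dose response follow-up; 0% = protein and probe with vehicle and 100% = probe without protein; strong numbers were not always called active; many hits fall short of the cut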
PABP polyA inh: blocks human PABP binding to poly(A) RNA. P11940. fluorescence polarization. inhibition, % at 35 µM. actives 1% (n = 290,000);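 active = 50% or more with normal probe brightness, or confirmed in later tests; inconclusive = above 50% with abnormal brightness, or retests that disagree; inactive = below 50% or failed in later tests; about a fifth of its hits are not listed in these tables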;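 also: calls also rest on retests at 20 µM and on dose response follow-up; controls were probe without protein and protein plus probe with vehicle; some compounds called inactive have numbers as strong as hits; many hits fall short of the cut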
Target sequence (P11940 whole entry, looked up): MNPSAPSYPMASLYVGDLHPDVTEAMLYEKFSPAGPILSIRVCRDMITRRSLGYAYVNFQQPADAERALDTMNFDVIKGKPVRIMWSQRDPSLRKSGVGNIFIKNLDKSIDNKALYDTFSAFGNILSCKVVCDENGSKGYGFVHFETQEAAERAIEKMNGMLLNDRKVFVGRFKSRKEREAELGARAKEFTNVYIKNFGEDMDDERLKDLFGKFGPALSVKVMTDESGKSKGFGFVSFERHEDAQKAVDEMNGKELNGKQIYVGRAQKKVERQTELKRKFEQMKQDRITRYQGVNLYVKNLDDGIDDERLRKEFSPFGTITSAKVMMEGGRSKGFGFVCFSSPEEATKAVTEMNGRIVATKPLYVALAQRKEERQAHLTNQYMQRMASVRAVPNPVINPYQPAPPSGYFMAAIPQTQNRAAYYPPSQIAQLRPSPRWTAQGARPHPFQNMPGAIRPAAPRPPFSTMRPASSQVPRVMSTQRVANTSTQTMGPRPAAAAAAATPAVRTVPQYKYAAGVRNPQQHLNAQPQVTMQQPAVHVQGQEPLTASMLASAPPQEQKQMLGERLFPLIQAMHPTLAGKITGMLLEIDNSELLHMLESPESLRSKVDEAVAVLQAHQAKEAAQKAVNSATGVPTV
MT1-MMP act inh: MT1-MMP (human) activation inhibition | actives 0.061% (n = 360,000) | AID 651647 | HT1080 RFP-PRO-GFP cells, GFP/RFP ratio fluorescence, overnight; percent of plate control window, DMSO zero | GFP/RFP ratio change, % at 20 µM | P50281;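 active = GFP/RFP ratio change of at least 30% with cell ATP level not reduced by more than half and red fluorescence within 50% of control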; also: strong numbers were not always called active
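Assay system: HT1080 cells carrying an RFP-PRO-GFP reporter | Dosing: Single dose of 20 µM compound, 1% DMSO final | Incubation: Cells overnight before dosing, compound overnight, 37 °C, 5% CO2 | Evaluation: GFP/RFP fluorescence ratio | Control set: DMSO and RFP-L50D-GFP cell wells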
MT1-MMP act inh RFP: recorded beside MT1-MMP act inh, whose call it bears; RFP signal change, %; measured here: RFP expression control read;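 0 = vehicle wells; hits needed this value within 50% of zero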
An asterisk follows results filed as active; i = inactive; ? = inconclusive; . = no result given; + = active, no number. Only part of the results is shown, so the mix of outcomes need not match the whole.

Preview (2 entries):
SMILES	CSC inhib	Env fusion inh	Rce1 inhib	Yeast UUG start	eIF4H FP inh	PABP polyA inh	MT1-MMP act inh	MT1-MMP act inh RFP
Cc1csc(NC(=O)c2cc(=O)[nH]c3ccccc23)n1	5	-17	.	-15	-13	1	-5	0
Cc1ccc(S(=O)(=O)N/N=C\c2cc3c(cc2Br)OCO3)cc1	4	11	i	-7	0	1	-9	-1

This part in full (from the top)
SMILES	CSC inhib	Env fusion inh	Rce1 inhib	Yeast UUG start	eIF4H FP inh	PABP polyA inh	MT1-MMP act inh	MT1-MMP act inh RFP
Cc1csc(NC(=O)c2cc(=O)[nH]c3ccccc23)n1	5	-17	.	-15	-13	1	-5	0
Cc1ccc(S(=O)(=O)N/N=C\c2cc3c(cc2Br)OCO3)cc1	4	11	i	-7	0	1	-9	-1
Cc1sc2ncnc(N3CCC(C(=O)NNC(=O)COc4ccccc4Cl)CC3)c2c1C	.	1	i	.	.	.	5	-7
COc1ccc(C(=O)COC(=O)c2cccs2)cc1	-15	-45	.	-89	.	.	8	0
CC1=NN(C(=O)c2ccccc2Br)C(O)(c2cccnc2)C1 (stereo not drawn)	-3	-23	i	-10	-16	3	0	1
c1coc(-c2cc3nc(NC4CCCCC4)ccn3n2)c1	.	-193	.	-29	.	.	1	4
Cc1ccc(Cn2c(CN(C)Cc3ccccc3)nc3c2c(=O)n(C)c(=O)n3C)cc1	-6	-59	i	.	-3	7	-9	-7
Cc1ccc(Oc2c(C)nc(-c3ccccc3)[nH]c2=O)cc1	-3	27	i	.	-1	7	-1	-25
COc1ccc(C2CC2/C(=N/O)c2ccccn2)cc1 (stereo not drawn)	-10	-5	i	.	-11	23	6	6
Cc1ccc(-c2c[n+](CC(=O)OCc3ccccc3)c3n2CCC3)cc1	6	16	i	-1	-3	4	2	5
CC(C)(C)NS(=O)(=O)c1ccc(NC(=O)Cc2ccccc2[N+](=O)[O-])cc1	-9	2	i	.	9	3	-3	1
Oc1ccc(CN2CCN(Cc3ccccc3)CC2)c2cccnc12	7	-22	i	-27	.	.	0	-1
O=C(Cc1ccccc1)NCC(=O)OCC(=O)c1ccc(OC(=O)c2ccccc2)cc1	.	-41	i	-4	-8	-9	5	10
COc1ccccc1NC(=O)C1=C(C)Nc2nc(-c3cccnc3)nn2C1c1ccccn1 (stereo not drawn)	.	3	.	-11	.	.	1	7
O=C(c1cc2ccccc2o1)N1CCN(S(=O)(=O)c2cccs2)CC1	0	.	i	.	3	6	-2	-1
CCOC(=O)C1=NNC2C(=O)N(CC)C(=O)C12 (stereo not drawn)	0	.	i	-6	-3	-1	1	4
O=C(C1=C[C@H](c2ccc(C(F)(F)F)cc2)C[C@H](OCc2ccc(CO)cc2)O1)N1CCN(Cc2ccc3c(c2)OCO3)CC1	80*	21	i	-2	19	27	-7	-20
O=C(OCc1ccccc1)/C(=C(\O)c1ccccc1Br)c1ccc(-c2ccccc2)cn1	24	21	i	9	.	.	0	-3
COc1ccc(NCC(=O)N/N=C/c2ccc3c(c2)OCCO3)cc1	29	-8	i	.	10	-7	0	1
O=S(=O)(c1cccc(Cl)c1)N1CCC(c2nc3ccccc3[nH]2)CC1	18	31	i	-17	1	-6	1	-4
CC(C)(C)c1cc(C(=O)NNC(=O)c2ccc(C(F)(F)F)cc2)no1	-7	-9	i	.	-11	-2	5	3
O=C(Cn1cnc2c(nnn2Cc2ccc(F)cc2)c1=O)Nc1cccc(F)c1	-3	-3	.	.	-3	6	-4	-2
COc1cccc(NC(=O)CN(C)C(=O)c2ccc(N3CCOCC3)c([N+](=O)[O-])c2)c1	-8	-5	i	-11	.	.	1	1
O=C(Nc1ccc(N2CCOCC2)nc1)c1ccc(Cl)cc1	-8	-25	i	18	6	8	6	-5
O=C(O)/C=C/C(=O)Nc1ccc(C2(c3ccc(NC(=O)/C=C/C(=O)O)cc3)c3ccccc3-c3ccccc32)cc1	14	8	i	-9	24	13	-2	0
COc1cccc2[nH]c3c(N4CCC5(CC4)OCCO5)ncnc3c12	0	-5	i	.	13	-16	7	4
Cc1csc(NC(=O)C2=NN(c3ccccc3)C(=O)CC2)n1	7	-28	i	.	5	1	-5	2
Cc1ccc(C)c(OCCCN2CCCC2)c1	-14	3	i	8	-2	8	6	4
CN(C)CCNC(=O)CN1C(=O)CSc2ccc(S(=O)(=O)N3CCCCC3)cc21	-9	5	i	4	.	.	-3	0
c1ccc(Cn2c(NCc3ccco3)nc3ccccc32)cc1	11	-112	i	-20	-10	3	4	2
COc1ccc(CNC(=O)CN2C(=O)NC3(CCCc4sccc43)C2=O)cc1 (stereo not drawn)	.	-7	.	3	.	.	0	2
COc1ccc(C(=O)Cn2nnc(-c3ccccc3F)n2)cc1	-14	.	i	-28	-5	1	-3	-3
CCOc1cc(N2CCOCC2)c(OCC)cc1NC(=O)CN1C(=O)NC(CC(C)C)C1=O (stereo not drawn)	.	1	i	.	3	?	1	6
Cc1cnc(NC(=O)CSc2nnc(CNc3ccc(F)cc3)n2CC2CCCO2)s1 (stereo not drawn)	-10	-6	i	.	3	3	1	0
CS(=O)(=O)c1ccc(Cl)c(NC(=O)COC(=O)CNC(=O)c2ccc3ccccc3c2)c1	-18	-7	i	-15	.	.	2	1
N#Cc1cccc(-n2c(-c3ccccc3)nnc2-c2ccccc2)c1C#N	8	.	i	-11	1	0	8	3
CC(C)Cc1nnc(NC(=O)CCC(=O)NCCc2ccccc2)s1	14	0	i	-14	-11	-1	-4	-2
O=C(c1ccc(Cn2cnnn2)cc1)N1CCCC(Nc2ccc(F)c(F)c2)C1 (stereo not drawn)	0	-1	i	-7	-2	-6	-4	-1
COc1cc(CC(=O)OCC(=O)Nc2ccc(S(=O)(=O)N3CCCC3)cc2)cc(OC)c1OC	-6	.	i	652*	-5	-2	0	2
O=C(Nc1ccc(C(F)(F)F)cc1-c1ccccc1)c1ccccc1	-1	20	i	-11	1	-1	0	-1
CCCCCCCCCCOC(=O)Cn1c(COc2ccccc2C)[n+](C)c2ccccc21	106*	.	+	-21	14	20	-4	-35
CN(C)CCCNC(=O)/C(=C\C=C\c1ccccc1)NC(=O)c1ccc([N+](=O)[O-])cc1	-4	-19	i	.	-31	2	4	7
Cc1ccc(N2CCC(N3CCN(C)C(CCO)C3)CC2)cc1 (stereo not drawn)	36	-12	i	-11	4	7	5	4
COCCCNC(NC(=O)c1ccc(Br)cc1)C(Cl)(Cl)Cl (stereo not drawn)	9	20	i	.	-8	2	2	-3
CC(C)(C)NC(=O)c1ccc(NC(=O)CSc2ccccc2)cc1	-12	6	i	.	-4	-2	2	3
Cc1noc(NS(=O)(=O)c2ccc(N/C=C/C(=O)c3ccncc3)cc2)c1C	-3	10	i	.	-8	15	-1	3
COc1ccccc1CNCc1cc(OC)c(OC)c(OC)c1	-5	1	i	-2	-1	5	1	5
Cc1cn2c(=O)c(C(=O)N3CCN(c4ccccc4Cl)CC3)cnc2s1	-5	3	i	.	.	.	3	2
Cc1ccc(SC(=O)c2c([N+](=O)[O-])c(C)nn2C)cc1	16	16	i	-19	2	0	0	1
CC1Cc2nc(SCC(=O)N3CCCc4ccccc43)n(C)c(=O)c2S1 (stereo not drawn)	0	4	i	7	6	4	4	-16
COc1cccc(CC2(CO)CCN(C(=O)NCCc3ccccc3)CC2)c1	11	-27	i	.	6	-4	-4	-1
O=C(CCCCCNC(=O)N1CCn2c1nc1ccccc12)N[C@H](C(=O)O)c1ccccc1	-22	.	i	-14	4	6	2	2
O=C(CN1C(=O)C(=O)N(CCC2=CCCCC2)C1=O)c1c[nH]c2ccccc12	3	16	.	-5	.	.	6	-2
O=C(O)c1ccc(/C=C/c2nc3sc4c(c3c(=O)[nH]2)CCC4)cc1	-16	8	i	.	6	13	-2	3
O=C(CC(SCCO)c1ccc2c(c1)OCO2)c1cccs1 (stereo not drawn)	15	-22	i	-12	6	4	-1	-2
COc1ccc(C2CC(C(F)(F)F)n3nc(C(=O)O)c(Br)c3N2)cc1 (stereo not drawn)	2	.	i	5	-2	-10	1	1
O=C(/C=C/c1c(F)cccc1Cl)c1ccc(O)cc1	67*	12	i	.	-6	-1	-8	-6
COC(=O)C(C#N)C(=C1C(=O)CC(C)(C)CC1=O)c1ccc(O)cc1 (stereo not drawn)	-3	.	i	.	-10	11	3	5
CC1CCc2cc(F)ccc2N1S(=O)(=O)c1ccc(Cl)nc1 (stereo not drawn)	6	13	i	.	2	2	2	2
CCCCn1c(-c2csc(CC)c2)n[nH]c1=S	-23	2	i	.	-7	18	1	2

Additional entries.
SMILES	CSC inhib	Env fusion inh	Rce1 inhib	Yeast UUG start	eIF4H FP inh	PABP polyA inh	MT1-MMP act inh	MT1-MMP act inh RFP
Cc1ccn(CC(=O)N2CCCC(Nc3ccc(F)c(F)c3)C2)n1 (stereo not drawn)	8	-104	.	-19	-8	-11	0	-1
C=CCn1c(SCC(=O)c2c(C)[nH]c3ccccc23)nnc1-c1ccncc1	.	14	i	.	-13	-33	2	-1
CC(C)C1/C(=N/O)CC(c2ccccc2)NC1c1ccccc1 (stereo not drawn)	29	2	i	3	1	4	3	-4
O=C1OCCC1Sc1nnnn1-c1ccc(Cl)cc1 (stereo not drawn)	3	29	i	.	-11	7	-2	-1
Cc1c(NS(=O)(=O)c2ccc(Br)s2)c(=O)n(-c2ccccc2)n1C	3	.	.	-12	7	6	2	5
O=c1[nH]c2ccccc2nc1C(F)(F)F	-7	-41	i	-24	-4	13	2	1
COc1ccc(CCNC(=O)C23CN(Cc4ccccc4)CC2C(c2ccc([N+](=O)[O-])cc2)=NO3)cc1 (stereo not drawn)	1	6	i	-4	2	5	-4	-7
COc1ccc(OC)c(CCNC(=O)CN2C(=O)COc3ccc(S(=O)(=O)N4CCOCC4)cc32)c1	9	13	i	-14	5	-1	9	6
CCCCNC(=O)CNC(=S)N(Cc1ccc(C)cc1)Cc1ccco1	.	-3	i	.	16	-5	-2	-2
OCCCCNCc1ccc(OCc2ccccc2Cl)cc1	-3	-42	i	-17	46	21	-1	1
CCNS(=O)(=O)c1ccc(NC(=O)c2ccccc2OCC)cc1	17	.	i	-24	1	3	3	-7
COc1cc(C(=O)NC(=S)Nc2cccc(-c3cc4ccccc4oc3=O)c2)cc(OC)c1OC	-3	.	i	-17	-4	3	-3	-6
CCn1c(SCC(=O)Nc2ccc(NC(C)=O)cc2)nc2c([nH]c3ccccc32)c1=O	-12	7	i	-16	4	9	-1	4
CC(C)(C)C(=O)NC1CC2CCCC(C1)N2C(=O)Nc1ccc(Cl)cc1 (stereo not drawn)	-14	-10	i	-10	4	2	-1	-1
Cc1cc(C)nc(SCC(=O)N2CCCCC2)n1	-12	.	i	-19	2	-2	2	3
CC(=O)Nc1ccc(C(=O)N(C)c2ccccc2)cc1	-9	.	i	-13	-7	0	3	-1
NC(=O)C1CCCN(C(=O)CCC(=O)c2cccs2)C1 (stereo not drawn)	-4	-2	.	-10	.	.	-1	3
Cc1ccc(-c2nc3ccccc3s2)cc1S(=O)(=O)N1CCCC1	13	.	i	.	-1	-1	-1	-15

Copied from the listing (three entries):
SMILES	CSC inhib	Env fusion inh	Rce1 inhib	Yeast UUG start	eIF4H FP inh	PABP polyA inh	MT1-MMP act inh	MT1-MMP act inh RFP
CCn1c(SCC(=O)Nc2ccc(NC(C)=O)cc2)nc2c([nH]c3ccccc32)c1=O	-12	7	i	-16	4	9	-1	4
CC(C)(C)C(=O)NC1CC2CCCC(C1)N2C(=O)Nc1ccc(Cl)cc1 (stereo not drawn)	-14	-10	i	-10	4	2	-1	-1
Cc1cc(C)nc(SCC(=O)N2CCCCC2)n1	-12	.	i	-19	2	-2	2	3
